High-throughput results from PubChem BioAssay.
PrP 5UTR inh – suppresses PrP 5' UTR mRNA reporter expression | cell-based PrP 5' UTR mRNA reporter, plate reader | AID 488862 | inhibition, % (test concentration not listed) | actives 0.35% (n = 340,000);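 active = every replicate at 50% or more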;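 also: 0 = median of the neutral control wells; tested in H4 reporter cells; numbers are from one replicate; inactives centre near -14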
Mtb hypoxia rep – inhibitors of hypoxia-regulated fluorescent reporter in Mycobacterium tuberculosis; M. tuberculosis hypoxia-regulated fluorescent reporter, fluorescence; fluorescence inhibition, % (concentration not given with the values); actives 0.1% (n = 300,000); AID 1159583;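 active = 35 to 45% if threefold the growth effect, above 45% if 1.5-fold the growth effect; inactive = the rest, general growth blockers included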;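 also: wells of about 50 µL received 100 nL stock; 0% = vehicle wells and 100% = reference inhibitor wells; whole bacteria with a GFP reporter of the hypoxia response; strong numbers were not always called active; many hits fall short of the cut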
Bead autofluor – counter-screen for toxin protease inhibitors: compound fluorescence. compound autofluorescence counterscreen, microsphere flow cytometry; stronger effect = higher value. fluorescence intensity (test concentration not listed). actives 3.1% (n = 360,000). AID 624483;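 active = at least 3 SD above the mean of all compounds, about 16000 in these data; inconclusive = too few beads counted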;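 also: 100 nL of 1 mM stock went into each well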
BJeLR viability – kills HRASV12-expressing BJeLR cells; actives 0.17% (n = 300,000); BJeLR (HRASV12) viability, CellTiter-Glo ATP luminescence, 48 h; reference of the scale not given here; inhibition, % (no concentration beside the values);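 active = replicate mean above 50%; inconclusive = above 50% but judged a plate artefact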;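 also: 50 nL library stock added to about 25 µL; numbers are from one replicate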
ugtP null kill – kills S. aureus RN4220 lacking UgtP; S. aureus RN4220 ugtP deletion, OD600 growth, 16 h; some inactives read as strong as hits; AID 1259309; growth inhibition, % (no concentration beside the values); actives 0.54% (n = 330,000);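 active = z-score under -3 and OD600 up to 0.15 on both plates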;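 also: plate controls were untreated wells for no effect and antibiotic for full effect; wells of about 80 µL received 100 nL stock; the first replicate is given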
Sa RN4220 lethal – S. aureus RN4220 growth inhibition | actives 0.33% (n = 330,000) | inhibition, % (test concentration not listed) | OD600, 16 h | AID 1259311;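 active = z-score of -3 or lower and OD600 up to 0.18 on both plates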;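 also: plate controls were untreated cells for no effect and reference antibiotic for full effect; stock transfer was 100 nL into about 80 µL; one replicate is shown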
Mtb hypoxia rep growth – second read-out of Mtb hypoxia rep, no call of its own (marks repeat the call); growth inhibition, %; measured here: M. tuberculosis growth (absorbance);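 0% = vehicle and 100% = reference antibiotic; read after six days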
Starred values were filed as active, the others as inactive; ? = inconclusive; / = no result given; & = joins results of further samples.

SMILES | PrP 5UTR inh | Mtb hypoxia rep | Mtb hypoxia rep growth | Bead autofluor | BJeLR viability | ugtP null kill | Sa RN4220 lethal
N#Cc1cccc(N=Cc2c(O)ccc3ccccc23)c1 | -1 | -3 | 10 | 2406 | -6 | 7 | 4.6
O=C1CC(c2ccccc2)CC(O)=C1C=Nc1ccccc1O (stereo not drawn) | 0 | / | / | 2241 | -4 | -1 | 10
CCn1c(SCC(=O)c2ccc(C)cc2)nnc1-c1ccoc1C | -24 | / | / | 4202 | 5 | -7 | 3.3
S=C(Nc1ccc(Cl)cc1Cl)N1CCCC1 | -19 | -7 | -6 | / | 4 | 5 | 4.0
CC1=C(C#N)C(c2ccccc2)C2=C(N1)c1ccccc1C2=O (stereo not drawn) | -51 | 6 | 3 | 2586 | 21 | 7 | 6.3
COc1ccc(CN2CCN(CCCc3ccccc3)C(CCO)C2)c(O)c1 (stereo not drawn) | -9 | -3 | 3 | 3419 | -7 | 10 | 4.5
CCc1ccc(Nc2n[n+](-c3ccccc3)c(-c3cc(OC)c(OC)cc3Br)s2)cc1 | -8 | 5 | 9 | 3363 | 9 | -46 | -5.9
O=C(CCN1C(=O)C2CC=CCC2C1=O)N1CCN(c2ccccn2)CC1 (stereo not drawn) | -11 | / | / | 5334 | 0 | -1 | -1.4
Cc1nc(-c2ccc(Cl)cc2)sc1C1(C)CC(c2cccc([N+](=O)[O-])c2)=NO1 (stereo not drawn) | -17 | 3 | 4 | 3604 | 1 | -8 | -1.4
COC(C(=O)Nc1ccnn1C1CCN(C(=O)c2ccc(C=O)cc2)CC1)c1ccccc1 (stereo not drawn) | -10 | -3 | -3 | 4398 | -2 | 0 | 2.2
COc1ccc(CCN2CC(C(=O)NCC(=O)Nc3ccc(F)c(F)c3)CC2=O)cc1OC (stereo not drawn) | -5 | -4 | 0 | ? | 0 | -2 | 2.1
CC(=O)CCc1ccc(OCCCCN2CCC(Cc3ccccc3)CC2)cc1 | -31 | -1 | 12 | 4326 | 8 | 7 | 8.3
COc1ccc(NC(=S)N(CCC(C)C)C2CCN(C(C)C)CC2)cc1 | -18 | -1 | 8 | 3691 | -6 | -6 | 0.4
COc1cccc(OCc2nnc(SCC(=O)N3c4ccccc4Sc4ccc(Cl)cc43)o2)c1 | -26 | 6 | 1 | 2503 | 1 | -3 | 1.7
COc1ccc(NC(=O)c2cccc(N3C(=O)C4C5C=CC(C5)C4C3=O)c2)cc1Cl (stereo not drawn) | -18 | / | / | 5064 | 7 | / | /
COc1cc(/C=C2\SC(c3ccc(C)cc3)=NC2=O)cc(OC)c1O | -14 | 3 | 4 | 11833 | -4 | -8 | 27
COC(=O)c1cc(S(=O)(=O)Nc2ccc(C)cn2)c[nH]1 | -14 | 7 | 2 | 5521 | -7 | 4 | 4.1
Cc1ccc(C)c(N2C(=O)c3ccc(C(=O)OCC(=O)c4c(N)n(C)c(=O)n(C)c4=O)cc3C2=O)c1 | -24 | 1 | -5 | 2554 | -1 | -4 | 1.5
COc1cccc(CN2CCCC(C(=O)N3CCCCC3)C2)c1OC (stereo not drawn) | -17 | -2 | -7 | 8861 | -3 | 1 | 0.7
O=C(Cn1c(=O)oc2ccccc21)NCCc1ccccc1 | 6 | 18 | 4 | 3342 | 4 | 6 | 2.9
COC(=O)c1ccc(CSc2cc(C)c3cc(C)cc(C)c3n2)o1 | -23 | 7 | -13 | 4804 | -3 | 21 | 0.7
Cc1ccc(-n2c(=O)[nH]c3cc(C(=O)NC4CCN(Cc5ccccc5)CC4)ccc3c2=O)cc1 | -11 | 12 | 12 | 9799 | -3 | -4 | 4.4
O=C(O)C1=CC(c2ccccc2)CC(OCCCCO)O1 (stereo not drawn) | / | 6&11 | 6&9 | / | / | 4&0 | 8.7&2.9
O=S(=O)(NCC(c1ccc2c(c1)OCO2)N1CCOCC1)c1ccc(Br)cc1 (stereo not drawn) | -2 | -7 | 0 | 6474 | -5 | -1 | 6.0
COc1ccc(S(=O)(=O)N2CCOCC2)cc1NC(=O)COc1ccc2c(C)cc(=O)oc2c1 | -5 | -3 | -2 | 3540 | / | 4 | 3.9

(more compounds)
SMILES | PrP 5UTR inh | Mtb hypoxia rep | Mtb hypoxia rep growth | Bead autofluor | BJeLR viability | ugtP null kill | Sa RN4220 lethal
Cc1ccc(S(=O)(=O)N(C)CC(=O)Nc2ccncc2)cc1 | -4 | / | / | 4364 | -11 | 11 | -1.2
CCN(CC)c1ccc(/C=N/Nc2nn[nH]n2)cc1 | 7 | / | / | 3649 | 0 | / | /
O=C(Nc1ccc(Cl)c(Cl)c1)OCc1cncs1 | -31 | / | / | 2076 | 2 | -20 | -2.8
Cn1cc(C(=O)N/N=C/C2=C(N3CCOCC3)C(=C\c3ccccc3)/CC2)ccc1=O | -15 | / | / | 2612 | -5 | / | /
O=C(CCn1cncn1)N1CCN(S(=O)(=O)c2ccc(Cl)cc2)CC1 | -5 | 1 | -1 | 3213 | -5 | 1 | -1.9
CCN(CC)c1ccc(S(=O)(=O)N(CC)CC)cc1NC(=O)C1CCCC1 | -23 | 7 | 1 | 4924 | 6 | 12 | 5.7
Cc1cc(C)cc(NC(=O)C2CCN(S(C)(=O)=O)CC2)c1 | -18 | -8 | 10 | 3342 | -13 | 4 | 2.3
CN(Cc1ccc(F)cc1)C(=O)CNC(=O)C1CCCCC1 | -10 | 3 | 5 | 5632 | -11 | 7 | -4.4
CCn1c(COc2cccc(C)c2C)nnc1SCC(=O)Nc1cc(C)on1 | -12 | 7 | -3 | 4532 | -2 | 3 | 4.5
CCOc1ccccc1OCCC(=O)Nc1ccc(F)c(Cl)c1 | 5 | 3 | 9 | 2579 | -3 | -8 | 6.2
CCC/C(=N\NC(=O)c1ccccc1C)c1ccccc1 | -23 | / | / | 2013 | -9 | / | /
O=C(N/N=C/c1ccc([N+](=O)[O-])s1)C(O)c1ccccc1 (stereo not drawn) | -11 | / | / | 2012 | -3 | / | /
N#CC1=C(SCc2ccccc2)NC(=O)CC1c1ccccc1 (stereo not drawn) | -14 | / | / | 3398 | -2 | 6 | -1.2
C=CCn1c(=S)[nH]c2cc(C(=O)N3CCN(c4ccccc4OC)CC3)ccc2c1=O | -15 | 1 | 0 | 8029 | / | -2 | -0.6
CN(C)c1ccc(/C=N/NC(=O)C(=O)N2CCCCCC2)cc1 | -9 | / | / | 5642 | 9 | / | /
CCN1CCN(C(=O)C(=O)c2cn(CC(=O)N3CCCC3)c3ccccc23)CC1 | -14 | 3 | 4 | 6511 | -3 | -5 | 3.9
COc1ccc(CCNC(=O)CSc2nnc(CNC(=O)c3ccco3)o2)cc1OC | 0 | / | / | 5340 | 1 | 11 | -1.7
O=C(NN=Cc1c[nH]c2ccccc12)c1cc2ccccc2o1 | / | 1 | 9 | / | / | 14 | 2.2
CCC(C)Sc1ccc([C@@H]2[C@@H]3C(=O)N(C)C(=O)[C@@H]3[C@]3(C(=O)OC)CCCCN23)cc1 (stereo partly drawn) | -4 | / | / | 3716 | -1 | / | /
CCOC(=O)c1oc2c(C)c(O)ccc2c(=O)c1-c1nncn1-c1ccccc1 | -22 | -7 | -3 | 4220 | -1 | 3 | 0.3
C#Cc1ccc([C@@H]2C=C(C(=O)N3CCOCC3)O[C@H](OCCCCO)C2)cc1 | -10 | / | / | 3953 | 7 | / | /
CC(C)c1nc(N2CCOCC2)c(C#N)c2c1CCCC2 | -4 | 6 | 3 | 4373 | -8 | 63 | 5.7
CSc1ccccc1C(=O)NCc1ccc(F)cc1 | -38 | -1 | 5 | 1887 | -9 | 1 | 4.7
CCc1cc(C(c2ccccc2OC)N2CCOCC2)c(NC(=O)c2ccccc2)s1 (stereo not drawn) | -11 | 4 | -5 | 2741 | -9 | 16 | 1.8
O=C(Nc1ccccc1)N1CCC(C(=O)N2CCN(c3ccccc3F)CC2)CC1 | -16 | 3 | 1 | 4478 | -5 | -1 | -3.3

Reformatted as comma-separated lines: part of the list above.
smiles,PrP 5UTR inh,Mtb hypoxia rep,Mtb hypoxia rep growth,Bead autofluor,BJeLR viability,ugtP null kill,Sa RN4220 lethal
CC1=C(C#N)C(c2ccccc2)C2=C(N1)c1ccccc1C2=O (stereo not drawn),-51,6,3,2586,21,7,6.3
COc1ccc(CN2CCN(CCCc3ccccc3)C(CCO)C2)c(O)c1 (stereo not drawn),-9,-3,3,3419,-7,10,4.5
CCc1ccc(Nc2n[n+](-c3ccccc3)c(-c3cc(OC)c(OC)cc3Br)s2)cc1,-8,5,9,3363,9,-46,-5.9
O=C(CCN1C(=O)C2CC=CCC2C1=O)N1CCN(c2ccccn2)CC1 (stereo not drawn),-11,/,/,5334,0,-1,-1.4
Cc1nc(-c2ccc(Cl)cc2)sc1C1(C)CC(c2cccc([N+](=O)[O-])c2)=NO1 (stereo not drawn),-17,3,4,3604,1,-8,-1.4

(next part)
SMILES | PrP 5UTR inh | Mtb hypoxia rep | Mtb hypoxia rep growth | Bead autofluor | BJeLR viability | ugtP null kill | Sa RN4220 lethal
CCOC(=O)c1ccc(NC(=O)CC2NCCNC2=O)cc1 (stereo not drawn) | -16 | 1 | -3 | 3400 | -3 | 1 | 7.7
O=C(CN1C(=O)/C(=C/c2cccc(Cl)c2)SC1=S)NC1C=CS(=O)(=O)C1 (stereo not drawn) | -20 | -10 | 0 | 4686 | -7 | -2 | -0.5
Cc1ccc(-n2c(=S)sc3c(=O)n(-c4ccccc4F)c(SCC(=O)O)nc32)cc1C | -13 | -3 | -4 | 2913 | -6 | 21 | 7.1
CC/C(=N\NC(=O)c1ccoc1C)c1ccc(C)o1 | -18 | / | / | 1942 | -1 | / | /
CN1C(=O)C(O)(CC(=O)c2ccc3c(c2)OCO3)c2ccccc21 (stereo not drawn) | -25 | -1 | -1 | 10206 | 7 | -1 | 1.9
Cc1cc(C)cc(NC(=O)Nc2ccc3ccccc3n2)c1 | -11 | 12 | -6 | 3235 | -6 | 3 | 6.8
COc1cc(OC)c(NC(C)C(=O)N2CCCC2)cc1Cl (stereo not drawn) | -13 | -5 | 2 | 3447 | 6 | -3 | 5.0
CCCCOc1ccccc1C1NC(=O)NC(C)=C1C(=O)OCc1ccco1 (stereo not drawn) | -11 | 3 | 4 | 10625 | -1 | -10 | 11
CCOc1ccc(S(=O)(=O)N2CCN(Cc3ccccc3)CC2)cc1 | -15 | 2 | 7 | 3999 | 4 | 19 | -0.6
COCCCNC(=O)c1nc2c(nnn2Cc2cc(C)ccc2C)c(=O)[nH]1 | -14 | -10 | -8 | 8241 | -12 | -1 | 6.8
COC(=O)c1ccccc1NC(=O)CN1CCN(C23CC4CC(CC(C4)C2)C3)CC1 | -9 | -1 | 1 | 6093 | -6 | -8 | -5.3
O=C(CNCCC1=CCCCC1)Nc1ccc(N2CCCCCC2)cc1 | -38 | 4 | 3 | 4049 | -11 | -26 | 12
CCOC(=O)N1CCC2(CC1)NCCc1c2[nH]c2ccccc12 | -3 | 5 | 3 | 4393 | -9 | 4 | 0.3
Cc1cc(C=NNC(=O)c2ccncc2)c(C)n1-c1cccc(C(F)(F)F)c1 | / | 25 | 13 | / | / | 6 | 1.1
COc1ccccc1NC(=O)c1ccccc1NC(=O)c1cccs1 | -3 | 5 | -8 | 3964 | -13 | -5 | -3.3
O=C(NN=Cc1ccccn1)c1ccc(Br)cc1 | / | 13 | 7 | / | / | -5 | 6.5
CC(Nc1nc(N2CCCCC2)nc2ccccc12)c1ccccc1 (stereo not drawn) | -21 | 0 | 13 | 21408* | 10 | -29 | -5.9

Sorted by length of the SMILES (lowest first): 3 of the compounds above.
SMILES | PrP 5UTR inh | Mtb hypoxia rep | Mtb hypoxia rep growth | Bead autofluor | BJeLR viability | ugtP null kill | Sa RN4220 lethal
CCC/C(=N\NC(=O)c1ccccc1C)c1ccccc1 | -23 | / | / | 2013 | -9 | / | /
COc1ccc(CN2CCN(CCCc3ccccc3)C(CCO)C2)c(O)c1 (stereo not drawn) | -9 | -3 | 3 | 3419 | -7 | 10 | 4.5
COC(C(=O)Nc1ccnn1C1CCN(C(=O)c2ccc(C=O)cc2)CC1)c1ccccc1 (stereo not drawn) | -10 | -3 | -3 | 4398 | -2 | 0 | 2.2

Compounds were not picked by outcome. Share with any hit: about 4%.
